# NS1 inh: qHTS Assay for Inhibitors of Influenza NS1 Protein Function; S. cerevisiae slowed by influenza A NS1, growth recovery by OD600; Potency, µM (series often up to 46.1 µM), without a hit: top-dose activity, positive = more growth; 0.4% of 270,000 active; note: actives are rising curves; nearly all actives have a fitted effect of over 50% in size
#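 A cell-based growth assay was used: compounds that relieve NS1-induced slow growth of budding yeast raise OD600. Assay medium was yeast nitrogen base with ammonium sulphate and -URA supplement, pH 6.0, with 2% galactose.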
# SARS PLpro yeast: qHTS of Yeast-based Assay for SARS-CoV PLP. Potency, µM (titrated, usually from 32.9 µM), without a hit: top-dose activity, positive = growth rescue. AID 485353, 2010. 0.19% of 330,000 active. S. cerevisiae expressing SARS-CoV PLpro, growth rescue; control for the full effect not named in the record; note: 0% is about no effect; nearly all actives have a fitted effect of over 55% in size; growth read by luminescence after 48 h
# Cruzain inh Det: qHTS Assay for Promiscuous and Specific Inhibitors of Cruzain (with detergent) | Cruzipain (Trypanosoma cruzi), P25779 | purified cruzain, Z-FR-AMC fluorescence, 0.01% Triton | Potency, µM, for inactives: max response, negative = inhibition, actives largely listed as inhibitors | 0.43% of 200,000 active | AID 1478, 2009; active = well fitted curve in the direction sought with a large enough effect; inconclusive = small, poorly fitted or top-dose-only effect, or another doubt; inactive = no such curve, though single readings can be large; an effect the other way counts as inactive or inconclusive;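 note: plate controls were neutral wells for no effect and buffer without enzyme for full effect; nearly all actives have a fitted effect of over 40% in size; top concentration of the series not given in the record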
# Target sequence (P25779 123-467 limits assumed): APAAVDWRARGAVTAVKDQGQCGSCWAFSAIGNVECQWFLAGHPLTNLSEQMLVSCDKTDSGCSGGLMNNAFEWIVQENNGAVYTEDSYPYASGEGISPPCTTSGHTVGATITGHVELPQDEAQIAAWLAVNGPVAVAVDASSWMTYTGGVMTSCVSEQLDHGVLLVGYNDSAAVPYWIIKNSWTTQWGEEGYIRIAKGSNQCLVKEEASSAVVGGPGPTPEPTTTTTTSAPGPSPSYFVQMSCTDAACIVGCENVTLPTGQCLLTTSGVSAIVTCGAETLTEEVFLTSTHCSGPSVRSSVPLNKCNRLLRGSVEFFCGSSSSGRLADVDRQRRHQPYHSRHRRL
#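 Detergent-containing arm of a paired screen for aggregation-based inhibition: 0.01% Triton X-100 present. Cruzain at 1.5 nM cleaved 2 uM Z-FR-AMC at pH 5.5 with 5 mM DTT; AMC fluorescence gain over 60 s measured activity.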
# Cruzain inh noDet: qHTS Assay for Promiscuous and Specific Inhibitors of Cruzain (without detergent); purified cruzain, Z-FR-AMC fluorescence, no detergent; Potency, µM, inactives show max response, negative = inhibition, most hits filed as inhibitors; 2.3% of 200,000 active; AID 1476, 2009; active = well fitted curve in the direction sought with a large enough effect; inconclusive = small, poorly fitted or top-dose-only effect, or another doubt; inactive = no such curve, though single readings can be large; an effect the other way counts as inactive or inconclusive;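 note: plate controls were enzyme without inhibitor for no effect and buffer without enzyme for full effect; nearly all actives have a fitted effect of over 40% in size; top concentration of the series not given in the record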
#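 Purified cruzain at 1.5 nM, pre-incubated 15 min with compound at room temperature in 100 mM sodium acetate pH 5.5, 5 mM DTT, 0.00005% Triton X-100. Reaction started with 2 uM Z-FR-AMC; AMC fluorescence increase over 60 s gives rate.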
# MARV entry inh: qHTS for inhibitors of binding or entry into cells for Marburg Virus | 1.8% of 300,000 active | Marburg virus pseudotyped entry inhibition, cell reporter; control for the full effect not named in the record; about a third of the inactives were read at about 46 µM | AID 540276, 2011 | Potency, µM (titrated, usually from 37.8 µM), inactives show top-dose activity change, negative = inhibition, most hits filed as inhibitors; active = well fitted inhibition curve with a large enough effect; inconclusive = small, poorly fitted or top-dose-only effect, or effect the other way; inactive = flat fitted curve, though single readings scatter; tested in HEK293 cells; about a fifth of its hits are not listed in these tables; note: % is set by controls: 0 for no effect and ±100 for the full control effect; luciferase read-out
# RE007 growth inh: qHTS Assay for Inhibitors of the HIV-1 protein Vpr | S. pombe RE007 Vpr strain, BacTiter-Glo ATP luminescence, 24 h; control for the full effect not named in the record | Potency, µM (top dose mostly 92.2 µM), inactives show at the top dose activity change, negative = less growth | 0.21% of 360,000 active | AID 651644, 2012; active = well fitted falling curve with a large enough effect; inconclusive = small, poorly fitted or top-dose-only effect; inactive = no such curve, though single readings can be large or run the other way;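 note: % is set by controls: 0 for no effect and ±100 for the full control effect; nearly all actives have a fitted effect of over 50% in size; the assay follows cell death caused by Vpr and the record does not say whether a fall means rescue or toxicity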
#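 Fission yeast RE007 carrying one integrated HIV-1 vpr copy, seeded at OD 0.01 in PMG+AL medium with 23 nL pinned compound. Grown 24 h at 30 degrees; viability read by BacTiter-Glo luminescence after 5 min.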
# 2A StopGo: High Throughput Screening for Foot and Mouth Disease Virus Antivirals; human cells with a luciferase reporter of 2A StopGo recoding; control for the full effect not named in the record; Potency, µM (highest dose often 57.9 µM), inactives show at the highest dose signal change, negative = less light; 1.2% of 410,000 active; active = well fitted falling curve with a large enough effect; inconclusive = small, poorly fitted or top-dose-only effect; inactive = no such curve, though single readings can be large or run the other way; tested in HEK293T cells; note: % is set by controls: 0 for no effect and ±100 for the full control effect; nearly all actives have a fitted effect of over 45% in size; luciferase light after 4 h
# LASV entry inh: qHTS for Inhibitors of binding or entry into cells for Lassa Virus. Lassa virus pseudotype entry inhibition, cell reporter; control for the full effect not named in the record. Potency, µM (doses to about 37.9 µM), inactives show top-dose activity change, negative = inhibition, hits mostly inhibitors. 1.2% of 300,000 active. AID 540256, 2011; active means well fitted inhibition curve with a large enough effect; inconclusive means small, poorly fitted or top-dose-only effect, or effect the other way; inactive means flat fitted curve, though single readings scatter; tested in HEK293 cells; note: % is set by controls: 0 for no effect and ±100 for the full control effect; nearly all actives have a fitted effect of over 50% in size; luciferase read-out
# * = called active by the depositor; ? = inconclusive; . = no result given; & = joins results of further samples; [ ] = dose if it differs, or a comment. Unless noted, calls come from the whole dose curve; as a rule, active means well fitted rising curve with a large enough effect; inconclusive means small, poorly fitted or top-dose-only effect; inactive means no such curve, though single readings can be large or run the other way. Potency is the fitted concentration of half-maximal effect.
SMILES,NS1 inh,SARS PLpro yeast,Cruzain inh Det,Cruzain inh noDet,MARV entry inh,RE007 growth inh,2A StopGo,LASV entry inh
O=C(c1ccoc1)N1CCC2(CC1)Oc1ccc(Cl)cc1C(=O)C21CC(c2cccnc2)=NO1 (stereo not given),-6%,1%,.,.,.,2%,-19%,.
CC(=O)C(C)Oc1ncn(-c2ccccc2)n1 (stereo not given),14%,.,-0.8%,-7%,2%,6%,44%[activator],?
C/C(=N\NC(=O)c1cc([N+](=O)[O-])cc([N+](=O)[O-])c1)c1ccco1,?,1%,.,.,?,-12%,-20%,-12%[46.1 µM]
COc1ccc(C2Nc3ccccc3C(=O)N2NS(=O)(=O)c2ccccc2)cc1 (stereo not given),.,0%,.,.,?,14%,-8%,-16%[46.1 µM]
COc1ccc(OC)c(NC(=O)CSc2nc3[nH]c(=O)[nH]c(=O)c3s2)c1,.,.,.,.,7%[46.1 µM],1%,20%,-1%
COc1ccc(C(C(=O)NCCC(C)C)N(CCO)C(=O)c2snc(C(N)=O)c2N)cc1OC (stereo not given),4%,-3%,.,.,.,1%,5%,.
S=c1[nH]nc(-c2cc(-c3ccccn3)nc3ccccc23)o1,-40%,-1%,.,.,.,-25%,-8%,.
COCCn1c(N)c(N(Cc2ccccc2)C(=O)c2ccc(C#N)cc2)c(=O)[nH]c1=O,.,0%,.,.,28%[46.1 µM],8%,14%,3%[46.1 µM]
CN1CCN(C(CNC(=O)c2ccccc2)c2ccc3c(c2)OCO3)CC1 (stereo not given),.,.,-1.1%,-7%,.,.,4%,8%[46.1 µM]
O=C1/C(=C/c2cccnc2)SC(=S)N1CCc1ccccc1,2%,-1%,.,.,.,26%,30%,.
CCOCCCNC(=O)c1c(C)c(C(=O)OCC)n(C)c1C,1%,-5%,6.2%,-1%,7%,3%,2%,-7%
O=P(Cc1nnco1)(c1ccccc1)c1ccccc1,12%,-5%,0.9%,8%,-6%,2%,11%,-20%
Cc1ccccc1Oc1ncnc2oc(-c3ccccc3)cc12,4%,2%,-7.7%,-5%,11%,-11%,0%,-7%
C/C=C\C=C/C(=O)Nc1cccc(C2=NOC3(C2)C[C@@H](C(N)=O)N(C(=O)[C@H]2CCC(=O)N2)C3)c1 (stereo not given in full),2%,0%,.,.,.,0%,-9%,.
COC(=O)C1=C(C)NC(=O)/C1=C\c1cc(C)n(-c2ccccc2)c1C,.,0%,.,.,7.9µM*,?,15%,?
CCc1ccc(NS(=O)(=O)c2ccc3[nH]cc(C(=O)NCC4CCCO4)c(=O)c3c2)cc1 (stereo not given),-8%,9%,-19%,-14%,19%&2%,-9%,23%,0%
COc1cc(/C=C(/C#N)c2nc3ccccc3[nH]2)ccc1OCC(=O)Nc1ccccc1C(C)C,3%,-2%,-3.5%,1%,-2%,-3%,?,.
CC1CCN(CC2C(=O)O[C@@H]3C[C@@]4(C)CCC[C@H](C)C4=C[C@H]23)CC(C)(C)C1 (stereo not given in full),?,-2%,.,.,?,-12%,?,-2%[46.1 µM]
Cc1ccc(N2C(=O)CC(Nc3ccc(Cl)c(S(=O)(=O)N(C)C)c3)C2=O)c(C)c1 (stereo not given),-8%,-6%,.,.,.,-6%,-14%,.
CCCCCCn1c(=O)c(C(=O)Nc2ncccc2C)c(O)c2ccccc21,1%,0%,.,.,.,-13%,-15%,.
CCC(C)NC(=O)CCc1nnc2ccc(N3CCC(C)CC3)nn12 (stereo not given),0%,1%,.,.,28%[46.1 µM],7%,-32%,6%[46.1 µM]
O=C(Nc1cccc(Cl)c1Cl)C1CCCO1 (stereo not given),17%,1%,.,.,14%[46.1 µM],-14%,4%,-5%[46.1 µM]
O=C(O)CC(NC(=O)C1c2ccccc2Oc2ccccc21)c1ccc(OC2CCCC2)cc1 (stereo not given),.,2%,.,.,3%[46.1 µM],14%,-19%,2%
O=C(O)/C=C\C(=O)NC1CCCCC1,22%,-2%,1.4%,-11%,17%,-7%,-6%,-2%
CCC(=O)c1ccc(OCC(O)Cn2c(C)nc3ccccc32)cc1 (stereo not given),-10%,1%,-5.0%,2%,6.3µM*,-13%,?,?
COc1ccc(C2CC(=O)n3nc(C45CC6CC(CC(C6)C4)C5)nc3S2)cc1OC (stereo not given),-4%,-3%,-10%,?,-20%,-1%,-18%,4%
O=C(Nc1ccc(C(=O)c2ccc(C(=O)O)c(C(=O)O)c2)cc1)c1ccccc1,24%,4%,.,.,.,3%,-7%,.
Cc1nc2c3ccccc3nc(SCC(=O)c3ccc(Cl)cc3)n2n1,8%,8%,-6.5%,?,-26%,-21%,?,-10%
CN1C(=O)/C(=C\c2ccc(-c3ccccc3)o2)SC1=S,4%,-1%,.,.,2%[46.1 µM],-6%,-3%,25%[46.1 µM]
CCOC(=O)c1sc(NC(=O)CNCc2cccnc2)c(C(=O)OCC)c1C,.,3%,.,.,?,7%,?,-14%
Cc1ccc(S(=O)(=O)N2CCCC(C(=O)NCCc3ccc4c(c3)OCO4)C2)cc1 (stereo not given),-2%,-3%,-2.2%,3%,-6%,14%,-26%,-27%
COc1ccccc1CNC(=O)CSc1cc(C)[nH]c(=O)n1,.,.,-0.1%,?,.,.,15%,2%[46.1 µM]
O=C(Nc1cccc2ccccc12)c1ccc(Cn2cc(Cl)cn2)cc1,1%,-10%,-3.4%,?,?,-6%,-23%,-2%
Cc1cccc(NC(=O)Cn2cc(C(=O)c3ccccc3)c3ccccc32)c1C,.,.,-1.4%,7%,?,.,?,0%[46.1 µM]
COc1ccc(Cl)cc1S(=O)(=O)N1CCC(C(=O)NCc2ccccn2)CC1,.,-3%,.,.,-8%[46.1 µM],-4%,-15%,-2%
CCc1cc2cc(C)ccc2nc1SCC(=O)NC1CCCC1,-24%,14%,.,.,?,7%,-22%,.
O=C(c1ccc2c(c1)N(Cc1ccc(Cl)cc1)C(=O)c1ccccc1S2(=O)=O)N1CCCCC1,.,.,0.3%,0%,13%[46.1 µM],.,-18%,9%[46.1 µM]
O=C(NCc1ccco1)c1cc(-c2cccs2)nc2ccccc12,5%,19%,-15%,-13%,?,-19%,-29%,-18%
CCC(=O)Nc1cc(C(C)(C)C)ccc1C(C)=O,-12%,-13%,-2.4%,-6%,-18%,-16%,-8%,3%
O=C(c1cccc(NC2=NC3CS(=O)(=O)CC3S2)c1)N1CCN(c2ccc(F)cc2)CC1 (stereo not given),-1%,8%,.,.,.,8%,-16%,.
O=S(=O)(NCC(c1cccnc1)N1CCOCC1)c1cccs1 (stereo not given),3%,2%,0.5%,-14%,3%,3%,.,4%
COc1ccccc1C(=O)Nc1cccc(C(=O)OCc2cc(=O)n3cc(C)sc3n2)c1,.,.,-1.7%,19%,.,.,-2%,29%[46.1 µM]
Cc1ccc(-c2nc(CS(=O)CC(=O)NCCN3CCCCC3C)c(C)o2)cc1 (stereo not given),10%,1%,.,.,.,-7%,-15%,.
Cc1nc(=S)c2c([nH]1)-c1ccccc1CC21CCCCC1,4%,0%,.,.,22%[46.1 µM],15%,-13%,-2%
CCc1ccc(CNC(=O)CSc2cc(=O)n(C)c3ccc(Cl)cc23)cc1,.,.,0.3%,1%,4%[46.1 µM],.,13%,-24%[46.1 µM]
O=C(O)CCn1c(-c2ccccc2)cc2c1CCCC2=O,3%,15%,-0.6%,-21%,.,-9%,-23%,.
CC(C)COc1cccc(C(=O)NC2(C)CCS(=O)(=O)C2)c1 (stereo not given),5%,-9%,.,.,?,0%,2%,?
CCn1c(C)nc2cc(C(=O)N/N=C/c3cccc(O)c3O)ccc21,-6%,17%,.,.,?,-13%,8%,?
CCCCN(CC)C(=O)CSc1nc2n[nH]c(C)c2c(=N)n1-c1cccc(C)c1,.,-3%,-12%,?,.,17%,?,-21%[46.1 µM]
CCCNCc1cc(Cl)c(OCC)c(Cl)c1,0%,-9%,0.1%,-13%,3%,-13%,0%,-1%
# More compounds
SMILES,NS1 inh,SARS PLpro yeast,Cruzain inh Det,Cruzain inh noDet,MARV entry inh,RE007 growth inh,2A StopGo,LASV entry inh
Cc1cc(Cl)cc2c(N=Nc3ccccc3C(=O)O)c(O)[nH]c12,1%,-1%,.,.,.,2%,11%,.
CCn1c2ccccc2c2cc(CN3CCN(Cc4cccc(Cl)c4)CC3)ccc21,.,.,1.0%,7%,.,.,13%,?
CCc1ccc(CC2(O)CC(C)N(C)CC2C)cc1 (stereo not given),-4%,-61%,1.7%,-3%,?,-5%,-18%,-5%
CCOc1ccccc1NC(=O)C(=O)Nc1ccc2nc3n(c(=O)c2c1)CCCCC3,.,.,-0.9%,-2%,4%[46.1 µM],.,?,25%[46.1 µM]
COc1ccc(Br)cc1CN(C)C(=O)c1ccncc1,3%,0%,.,.,.,-6%,-19%,.
CC(C)(C)c1ccc(-c2nc3c(C#N)c(-c4ccc5c(c4)OCO5)ccn3n2)cc1,8%,3%,-8.1%,?,-4%,4%,-10%,-10%
CC(C)N1CCC(=NNC(=O)c2ccccc2[N+](=O)[O-])CC1,-4%,-1%,-0.5%,5%,-4%,6%,-3%,30%
Cc1ccc(NC(=O)c2cc(C)nc3ccccc23)c(C)c1,5%,4%,.,.,.,5%,-8%,.
CCOc1ccccc1-c1noc(CCC(=O)Nc2cccnc2)n1,13%,8%,.,.,-9%[46.1 µM],-2%,?,25%[46.1 µM]
O/N=C/c1ccc(OCc2ccccc2)c(Cl)c1,-40%,-32%,-11%,-6%,?,-28%,25%,?
CN(CC(=O)Nc1ccc(Cl)cc1)Cc1cc(=O)n2ccsc2n1,.,-1%,.,.,8%,-1%,0%,4%
CC(=O)Nc1ccc(NC(=O)/C=C/c2ccccc2)cc1,.,0%,.,.,?,2%,0%,-7%
CCc1ccc(OC)c(S(=O)(=O)N2CCN(C(=O)c3ccco3)CC2)c1,6%,7%,.,.,.,-1%,13%,.

# Source: PubChem BioAssay (National Center for Advancing Translational Sciences (NCATS))
